UUG fidelity – modulators of yeast start codon fidelity, primary screen, whole organism, S. cerevisiae, single point, plate reader; S. cerevisiae UUG-firefly luciferase reporter, luminescence/redox ratio; activity score, % at 18.7 µM; hit rate 0.13% among 350,000; AID 602363, 2012;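 active = replicate mean at a twofold rise or more, about +100% in these data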;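 note: firefly luciferase made from a UUG start codon reports start codon fidelity; reporter light over untreated wells divided by growth signal over untreated wells; some hits fall short of that in this replicate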
Rce1 inhib – yeast Rce1p protease inhibitors, primary screen, biochemical, fluorescence, cell-free homogeneous | CAAX prenyl protease 2 (Saccharomyces cerevisiae (strain ATCC 204508 / S288c)), Q03530 | yeast membranes, quenched prenylated peptide cleavage fluorescence | calls only | hit rate 0.27% among 290,000 | AID 2563, 2010;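 active = fall in fluorescence gain of 50% or more versus controls, with final raw signal at or below 3038400; inconclusive = same 50% fall but final raw signal above 3038400; inactive = fall in fluorescence gain under 50%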;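 note: plate controls were neutral control wells for no effect and wells lacking membranes for full effect; tested at 10 µM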
Target sequence (Q03530 whole entry, looked up): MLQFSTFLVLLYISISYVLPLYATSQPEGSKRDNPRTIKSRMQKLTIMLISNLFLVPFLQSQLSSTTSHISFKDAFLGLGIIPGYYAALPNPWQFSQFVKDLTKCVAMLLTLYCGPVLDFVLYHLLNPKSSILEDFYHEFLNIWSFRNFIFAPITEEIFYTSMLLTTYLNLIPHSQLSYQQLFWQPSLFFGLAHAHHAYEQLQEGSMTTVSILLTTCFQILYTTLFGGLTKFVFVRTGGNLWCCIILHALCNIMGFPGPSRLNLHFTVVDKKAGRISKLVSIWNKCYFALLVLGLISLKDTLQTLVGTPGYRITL
MT1-MMP act inh – blockers of MT1-MMP proenzyme processing, primary screen, HT1080 RFP-PRO-GFP cells, GFP/RFP fluorescence; hit rate 0.061% among 360,000; GFP/RFP ratio fluorescence, overnight; percent of plate control window, DMSO zero; Matrix metalloproteinase-14 (Homo sapiens), P50281; GFP/RFP ratio change, % at 20 µM;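 active = GFP/RFP ratio change of at least 30% with cell ATP level not reduced by more than half and red fluorescence within 50% of control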; note: strong numbers were not always called active
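Material – HT1080 RFP-PRO-GFP cells · Control set – DMSO wells and RFP-L50D-GFP cells · Incubation – overnight cell settling, then overnight compound exposure, 37 °C, 5% CO2 · Compound dosing – single-point 20 µM compound, 1% DMSO · Read-out – GFP/RFP fluorescence ratio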
PABP polyA inh – PABP poly(A) RNA binding inhibitors, primary screen, biochemical, fluorescence polarization, uHTS | Polyadenylate-binding protein 1 (Homo sapiens), P11940 | inhibition, % at 35 µM | hit rate 1% among 290,000 | AID 2014, 2009;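 active = 50% or more with normal probe brightness, or confirmed in later tests; inconclusive = above 50% with abnormal brightness, or retests that disagree; inactive = below 50% or failed in later tests; about a fifth of its hits are not listed in these tables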;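 note: calls also rest on retests at 20 µM and on dose response follow-up; controls were probe without protein and protein plus probe with vehicle; some compounds called inactive have numbers as strong as hits; many hits fall short of the cut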
Target sequence (P11940 whole entry, looked up): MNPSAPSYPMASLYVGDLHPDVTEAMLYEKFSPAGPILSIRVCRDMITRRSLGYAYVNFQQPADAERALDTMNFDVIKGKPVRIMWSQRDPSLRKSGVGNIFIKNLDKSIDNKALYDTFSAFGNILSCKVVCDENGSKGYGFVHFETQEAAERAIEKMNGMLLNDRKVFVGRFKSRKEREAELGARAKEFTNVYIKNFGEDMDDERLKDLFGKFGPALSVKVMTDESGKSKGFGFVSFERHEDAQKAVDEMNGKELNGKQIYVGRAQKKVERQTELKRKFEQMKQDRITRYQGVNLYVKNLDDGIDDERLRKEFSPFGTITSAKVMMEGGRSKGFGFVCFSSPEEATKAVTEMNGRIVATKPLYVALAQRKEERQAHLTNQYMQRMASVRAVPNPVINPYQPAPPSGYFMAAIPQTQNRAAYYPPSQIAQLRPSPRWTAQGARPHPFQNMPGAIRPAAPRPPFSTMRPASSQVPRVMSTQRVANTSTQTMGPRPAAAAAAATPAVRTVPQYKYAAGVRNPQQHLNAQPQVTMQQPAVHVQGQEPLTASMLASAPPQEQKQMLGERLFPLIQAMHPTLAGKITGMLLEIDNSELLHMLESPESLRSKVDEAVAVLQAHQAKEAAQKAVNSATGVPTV
eIF4H FP inh – human eIF4H binding inhibitors, primary screen, translation initiation inhibitor project, biochemical, uHTS, fluorescence polarization | Eukaryotic translation initiation factor 4H (Homo sapiens), Q15056 | eIF4H fluorescence polarization binding assay | inhibition, % at 35 µM | hit rate 0.94% among 290,000;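 active = 50% or more with normal probe brightness, or confirmed in later tests; inconclusive = above 50% with abnormal brightness, or retests that disagree; inactive = below 50% or failed in later tests; about a fifth of its hits are not listed in these tables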;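 note: calls also rest on retests at 20 µM and on dose response follow-up; 0% = protein and probe with vehicle and 100% = probe without protein; strong numbers were not always called active; many hits fall short of the cut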
Env fusion inh – inhibitors of HIV-1 Env-driven cell-cell fusion, primary screen, HeLa-JRFL effector, CEM21 target cells, luciferase | hit rate 1.1% among 360,000 | inhibition, % at 12.3 µM;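 active = mean replicate inhibition score of at least 50 and every replicate individually at or above 50; inconclusive = only one of the two criteria met; inactive = mean below 50 and not all replicates reaching 50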;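 note: 0% = plate neutral controls and 100% = maraviroc near 300 nM; one replicate is shown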
CSC inhib – cancer stem cell viability inhibitors, primary screen, luminescence | cancer stem cell-like cells viability | inhibition, % at 7.5 µM | hit rate 1.1% among 300,000;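 active = mean at 75% or more and at least half the replicates too; inconclusive = mean and replicates disagree; tested in HMLE shEcad cells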;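 note: 0% = median of negative and 100% = median of positive control wells; the first replicate is given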
MT1-MMP act inh RFP – second read-out of MT1-MMP act inh, no call of its own (marks repeat the call); RFP signal change, %; measured here: RFP expression control read;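 0 = vehicle wells; hits needed this value within 50% of zero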
* = called active by the depositor; i = inactive; ? = inconclusive; nt = not tested or not shown; & = joins results of further samples. The order is random; 3% or so of the library scored in one or more.

SMILES	UUG fidelity	Rce1 inhib	MT1-MMP act inh	MT1-MMP act inh RFP	PABP polyA inh	eIF4H FP inh	Env fusion inh	CSC inhib
COc1cccc(NC(=O)NC2CCN(Cc3nnnn3Cc3ccc4c(c3)OCO4)CC2)c1	-5.0	i	4.5	3.2	22.3	9.9	7.3	-12.6
COc1ccc(CC(=O)Nc2nc3ccccc3s2)cc1S(=O)(=O)N1CCOCC1	4.3	i	-2.5	-4.9	-9.4	-6.2	-4.7	-6.0
CCOC(=O)c1[nH]c(C)c(C(=O)Nc2ccc(F)cc2)c1C	-8.0	i	4.8	1.5	-7.3	5.0	28.8	nt
N#Cc1ccc(-c2cn3c(n2)SCC3)cc1	-5.5	i	1.2	-4.7	-2.2	-4.6	-14.6	-7.4
CC(=O)NCCNC(=O)c1ccc(Sc2ccccc2)c([N+](=O)[O-])c1	-33.1	i	2.5	-0.4	-5.2	-2.8	-3.1	37.6
CCCC(=O)Nc1c(-c2cccc(C)c2)c(=O)c2ccccc2n1C	-28.3	i	-4.3	-1.0	-5.0	-2.2	-12.8	4.5
Cc1onc(-c2ccccc2)c1C(=O)NNC(=S)NC(=O)c1ccc(Br)cc1	-24.6	i	1.7	-3.9	8.1	9.8	nt	27.6
CC1(C)C2CCC1(CS(=O)(=O)N1CCCC1C(=O)O)C(=O)C2 (stereo unspecified)	-15.6	nt	-2.6	0.8	nt	nt	-4.2	-20.8
COc1ccccc1N=c1sc2ccccc2n1C	nt	i	-1.3	-0.5	-4.2	0.5	-1.7	-12.9
COc1ccc2[nH]c(=O)c(COC(=O)c3cccs3)cc2c1	-7.3	i	-1.1	1.9	0.0	3.5	1.7	-8.1
CC(C)NS(=O)(=O)c1ccc(CCC(=O)NCc2cccnc2)cc1	-19.7	i	-4.8	-2.1	6.8	-3.0	-16.7	-12.2
Cc1cc(=O)n2nc(N3CCC(C(=O)NCc4ccccc4Cl)CC3)sc2n1	-7.3	i	0.9	2.1	2.1	-14.3	-3.1	-3.7
COc1cccc(NC(=O)Cn2c(=O)n(CCC(=O)NC3CCN(Cc4ccccc4)CC3)c(=O)c3ccccc32)c1	nt	i	1.2	-0.3	9.0	-0.6	-20.4	5.5
CC1CC(C)(C)NC(=S)N1CCCC(=O)Nc1ccccc1F (stereo unspecified)	nt	i	0.0	1.7	?	6.2	-5.3	0.3
C#Cc1ccc([C@@H]2C=C(C(=O)OCC=C)O[C@H](OCc3ccc(CO)cc3)C2)cc1	-19.0	i	-2.3	-5.0	-0.6	11.8	-11.6	1.1
CC1CCC2(CC1)NC(=O)N(Cc1cc(=O)n3ccsc3n1)C2=O (stereo unspecified)	nt	nt	nt	nt	4.8	2.6	nt	1.7
Cc1ccc2[nH]c3c(=O)n(CC(=O)Nc4ccccc4N4CCN(C)CC4)ncc3c2c1	-21.7	i	2.5	2.0	-1.1	-4.9	0.5	-13.5
CC(C(=O)OCC(=O)NC1CCCCC1)N1C(=O)c2ccccc2C1=O (stereo unspecified)	-12.9	nt	-3.9	6.0	nt	nt	nt	-15.8
CCC(=O)N1CCCN(S(=O)(=O)c2ccc(C)cc2)C1c1ccc(OC)cc1 (stereo unspecified)	-15.4	i	-1.4	-1.0	10.2	2.9	-1.3	nt
COc1nc(C)ccc1-c1noc(-c2ccccn2)n1	-17.6	i	3.9	3.1	-1.6	-12.2	nt	1.1
CC1Cc2ccccc2N1c1ncnc2nc[nH]c12 (stereo unspecified)	-17.3	i	-13.9	-11.9	-1.8	2.0	nt	-1.0
O=C(Nc1cccc(O)c1)c1ccc(Br)cc1	nt	i	3.5	0.1	-6.4	-3.1	nt	-8.8
Cc1ccc(NC(=O)CSc2nnc(N)s2)cc1S(=O)(=O)N1CCCCC1	-15.7	i	5.6	0.5	1.0	5.9	-272.9	-6.6
CC(C)CC(O)C1CCN(C(=O)CCc2nnc(-c3ccc4c(c3)OCO4)o2)CC1 (stereo unspecified)	14.0	i	1.7	0.1	5.3	11.1	19.6	-15.0
COc1cc(OC)cc(-c2nnc(SCC(=O)N3CCCCC3)o2)c1	8.1	i	-2.9	-0.3	1.2	9.1	7.5	-5.5
N#Cc1c(C(F)(F)F)cc(-c2cccs2)nc1SCc1ccc(Cl)nc1	-17.5	i	9.5	-2.9	-7.4	-13.0	-3.9	-8.4
CCn1ncc(Br)c1C(=O)Nc1c(C)nn(Cc2c(F)c(F)c(F)c(F)c2F)c1C	-17.8	i	3.3	-2.0	-2.5	-14.1	13.9	2.8
CCOC(=O)C1CCN(c2ncnc3c2cnn3-c2ccc(Cl)cc2)CC1	nt	i	4.2	-0.6	-2.0	-9.9	nt	-14.3
O=C(NC1CCCC1)C(c1ccncc1)N(CCCN1CCOCC1)C(=O)c1ccc(-c2ccccc2)[nH]1 (stereo unspecified)	-0.8	i	-0.8	1.9	-10.3	-8.7	-35.0	-1.6
Cc1cc(C(=O)OCC(=O)N2CCC(C)CC2)c2ccccc2n1	4.6	nt	-1.9	-4.2	nt	nt	nt	-15.0
CCN(CC)C(=O)CSc1nnc(-c2ccco2)o1	-17.5	i	-0.7	-6.9	19.0	2.1	-70.1	-13.9
Cc1cc(NC(=O)c2ccccc2-c2ccccc2C(=O)O)no1	nt	i	-0.1	7.5	1.0	-1.2	nt	nt
O=C(Cn1cccn1)N1CCCC(Nc2ccc(F)c(F)c2)C1 (stereo unspecified)	-14.2	i	-2.0	0.6	-1.8	-5.1	8.3	-31.1
O=C(Cn1nc(-c2ccc(Cl)cc2)ccc1=O)NCc1ccc2c(c1)OCO2	-11.7	i	0.4	3.0	-1.3	-3.8	9.7	-4.4
CC(C)=CCC/C(C)=C/CNC(=O)C[C@H]1C[C@H](C(=O)N2CCOCC2)[C@@]2(CCC3CCCC3)c3[nH]c4cc(CCC(=O)N(C)C)ccc4c3CCN2C1=O	-15.0	nt	-18.6	-23.6	nt	nt	12.6	nt
Cc1c(CCC(=O)NC2CC2)c(=O)oc2cc(O)ccc12	4.3	i	4.1	3.2	-19.8	-3.3	nt	3.2
Cc1ccccc1-n1nnnc1SCc1cc(=O)n2ccsc2n1	-7.9	i	-4.6	-4.9	-9.9	-1.7	-3.4	-29.8
COc1ccccc1CNC(=O)C(CC(C)C)NC(=O)C1CCC(C)CC1 (stereo unspecified)	-4.7	i	-24.6	-12.9	-3.2	-1.1	-162.4	-9.8
O=C(Nc1cccc(C(=O)O)c1)/C(=C\c1ccc(F)cc1)NC(=O)c1ccco1	-7.2	i	1.5	0.6	8.7	-9.2	-1.9	nt
O=C(Cn1cnc2ccccc21)Nc1ccc(F)c(F)c1	-17.3	i	8.4	-1.9	1.5	1.1	1.3	-5.0
O=C(NCc1ccc(C(=O)O)cc1)OCc1ccccc1	nt	i	3.2	0.9	-1.0	-13.5	-0.3	5.3
Cc1nonc1-c1ccc2c(c1)OCO2	-15.4	i	4.2	6.9	5.7	-0.4	12.6	1.9
Nc1ncnc2c1nc(Sc1ccc(Cl)cc1)n2[C@@H]1O[C@@H]2COP(=O)(O)O[C@H]2[C@H]1O	-18.3	i	1.8	5.6	nt	nt	14.3	-2.6
Cc1[nH]n(C(N)=S)c(=O)c1N=Nc1cc(C(F)(F)F)ccc1Cl	-28.5	i	6.8	-1.7	-3.5	0.0	-8.7	29.4
COc1ccc(C(=O)Nc2nc(-c3ccc(S(=O)(=O)N4CCOCC4)cc3)cs2)cc1	-16.4	i	8.6	-14.2	-4.2	-7.4	93.5*	39.4
Cc1cc(C(=O)N2CCN(c3ccc([N+](=O)[O-])cc3)CC2)co1	-9.2	i	4.4	-9.7	7.6	8.1	-4.3	-1.2
O=C(Nc1nccs1)C1(S(=O)(=O)c2ccc(Cl)cc2)CC1	-17.5	i	0.6	-4.5	4.2	-4.3	nt	-21.1
O=S(=O)(c1ccc(Br)cc1)N1CCCN(Cc2ccccc2F)CC1	-4.2	i	-0.4	2.3	1.0	-2.1	5.6	31.9
O=C(N/N=C/c1cccc2ccccc12)c1cc2ccccc2o1	-13.1	i	-1.4	-4.7	-5.6	-2.9	29.0	nt
COc1ccc(C(=O)Nc2cnc(NC(=O)c3cccs3)cc2C)cc1	-33.9	i	-5.0	-2.3	16.7	36.1	12.3	21.1
CCOC(=O)C(c1ccccc1)N1CCN(c2ccc(OC)cc2)CC1 (stereo unspecified)	0.4	i	0.2	-3.3	3.5	9.8	31.2	4.4
CCOC(=O)c1c(C)n(CC)c2ccc(OC(=O)c3ccc([N+](=O)[O-])cc3)cc12	nt	i	5.1	4.7	-1.7	-9.7	-43.8	-10.0
Cc1ccc(C2(c3ccc(C)cc3)NC(=O)N(CC(N)=O)C2=O)cc1	-6.3	i	-1.5	-0.9	-5.4	1.6	15.9	-6.3
CN(C)C(=O)c1ccc(-c2cc(C(F)(F)F)n(C)n2)s1	nt	i	2.1	-0.6	-2.8	1.7	-6.7	-8.2
CC(=O)c1cccc(NC(=O)c2cnccn2)c1	-19.9	i	-0.8	0.2	-10.5	-10.8	7.1	1.9
CCCCn1c(N)c(N(CCOC)C(=O)c2ccc(-c3ccccc3)cc2)c(=O)[nH]c1=O	2.9	i	-1.9	-1.8	nt	nt	-16.3	-5.5
Cc1cc(=O)[nH]c(SCC(=O)N2CCCCCC2)n1	-2.7	i	6.5	5.1	-5.7	0.5	nt	-3.4
CS(=O)(=O)c1ccc2c(c1)SC1=NC(=O)/C(=C/c3ccco3)C(=N)N12	-2.1	i	-19.6	30.2	91.0*	93.9*	nt	5.9
C[C@H](CO)N1C[C@H](C)[C@@H](CN(C)S(=O)(=O)c2ccc(Cl)cc2)OCc2cnnn2CCCC1=O	-24.9&9.2	nt	2.3	0.9	nt	nt	9.3	nt
Fc1ccc2nc(C(F)(F)F)cc(N3CCOCC3)c2c1	-13.9	i	-2.9	2.0	16.6	0.6	-13.0	-9.2

As entered above.
`Cc1cc(=O)[nH]c(SCC(=O)N2CCCCCC2)n1` in UUG fidelity = -2.7
`CCCCn1c(N)c(N(CCOC)C(=O)c2ccc(-c3ccccc3)cc2)c(=O)[nH]c1=O` in MT1-MMP act inh = -1.9
`CC(=O)c1cccc(NC(=O)c2cnccn2)c1` in eIF4H FP inh = -10.8

The list continues:
SMILES	UUG fidelity	Rce1 inhib	MT1-MMP act inh	MT1-MMP act inh RFP	PABP polyA inh	eIF4H FP inh	Env fusion inh	CSC inhib
COc1ccc2nc(NC(=O)CSc3cn[nH]n3)sc2c1	-15.7	nt	-1.3	1.4	8.7	-5.2	-103.6	-11.7
CC(C)c1ccc(NC(=O)N(CCc2nc3ccccc3[nH]2)C2CCCC2)cc1	8.5	i	4.6	3.6	9.6	3.0	-146.4	nt
Cc1onc(-c2ccccc2)c1C(=O)n1cc(Br)cn1	-10.4	i	-1.7	4.9	-2.3	-5.1	-37.4	-8.8
CCc1ccc(Oc2coc3cc(OCC(=O)Nc4cc(C)ccc4C)ccc3c2=O)cc1	-20.0	i	2.9	1.9	2.6	2.9	-22.8	22.9

Source: PubChem
